S aureus helic = blocks Staphylococcus aureus DNA helicase | 120,000 tested, 0.05% active | AID 485395 | purified S. aureus helicase, fluorescence unwinding assay; about half of the hits fall short of the stated cut | inhibition, %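 (tested at about 80 µM)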;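 active means both duplicates at 50% or more, or one of them with a favoured structure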;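 further: 0% = mean of negative control wells and 100% = mean of positive control wells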
MgrA DNA FP = alters Staphylococcus aureus MgrA binding to DNA | AID 602314 | fluorescence polarization | inhibition, %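 (about 10 µg/mL by stock and volumes)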 | 84,000 tested, 0.13% active;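 active means above 50% in either of two replicates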;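 further: 0% = protein plus DNA without compound and 100% = DNA alone without protein; higher means less MgrA bound to DNA so lower polarization; one replicate is shown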
* marks the source's active call; other numbers are inactive results; x = not tested or not shown. This is a subset, so the mix of outcomes need not match the whole.

SMILES	S aureus helic	MgrA DNA FP
CCN(CC)C(=S)Oc1ccc(C(=O)Nc2cccc3ccccc23)cc1	4	-2.3
COc1ccc(OC)c(S(=O)(=O)N2C(C)CCCC2C)c1 (stereo unspecified)	-14	x
CC(C)(C)C(=O)Nc1ccc(C(=O)Oc2ccccc2)c(O)c1	17	x
CCCN(CCC)c1cccc(C(=O)O)n1	-6	-2.3
CCOC(=O)/C=C1\NC(=O)C(C)S1 (stereo unspecified)	8	2.2
CCOc1nnc(NS(=O)(=O)c2ccc(N)cc2)o1	7	-2.1
CCOc1nc2ccccc2nc1OCC	x	1.8
c1ccc(-c2nnn3c2nc(N2CCOCC2)c2ccccc23)cc1	8	x
C/C(COc1ccccc1O)=N\NC(N)=O	32	x
Cc1cccc(C)c1NC(=O)/C=C/c1cccs1	x	-3.0
CCN(CC)C1=NC(=O)C(CC(=O)Nc2cccc(C(=O)OCC(=O)N(C)C3(C#N)CCCCC3)c2)S1 (stereo unspecified)	-7	x
O=C(NC1CCS(=O)(=O)C1)/C(=C/c1ccccc1)NC(=O)c1ccccc1 (stereo unspecified)	7	-0.6
CCOc1ccc2cc(C3CC(c4ccc(Br)cc4)=NN3C(=O)CCC(=O)O)c(Cl)nc2c1 (stereo unspecified)	x	-0.9
C=CCn1c(C2COc3ccccc3O2)n[nH]c1=S (stereo unspecified)	10	x
COc1cc(C2=NOC(C(=O)N3CCN(c4ccc(F)cc4)CC3)C2)cc(OC)c1OC (stereo unspecified)	-22	x
Cc1ccc(-c2noc(-c3c[nH]c4ccc(S(=O)(=O)NC(C)C)cc4c3=O)n2)cc1	-3	x
O=C(O)c1ccccc1C(=O)n1c(COc2ccc(Cl)cc2Cl)nc2ccccc21	8	-0.1
NC(CCC(F)(F)F)C(=O)O (stereo unspecified)	-27	x
COc1ccc2cc(C(C)c3nc4ccccc4n3C)ccc2c1 (stereo unspecified)	8	4.2
CCN(CC)C(=O)Cn1ncc2c3ccccc3n(Cc3ccc(F)cc3)c2c1=O	-10	x
CCN1CCN(CCC(=O)Nc2ccccc2)CC1	6	6.4
Cc1ccc(C(N)=S)c(=O)[nH]1	x	3.6
CCOc1cc(C=C2C(=O)N(C)C(=O)N(C)C2=O)ccc1OCCOc1ccc(C)cc1	x	-0.5
N#C/C(=N\Nc1ccc(C(=O)O)cc1)C(=O)c1ccccc1	-22	x
Cc1cc(O)cc(O)c1C(=O)COc1ccccc1	12	2.7
O=C1CCCN1CCCNc1nc(-c2cccc(Cl)c2)c2c(n1)-c1ccccc1OC2	16	1.8
C=CCN(CC=C)C(=O)Cc1ccccc1OC	0	-0.5
O=C(c1ccco1)N1N=C2c3ccccc3CCC2C1c1ccc(F)cc1 (stereo unspecified)	x	0.8
O=C(CSc1nnc2n1CCCCC2)Nc1ccnn1C1CCCC1	-2	x
Cn1cnnc1SC1CCCCC1NS(=O)(=O)c1ccccc1 (stereo unspecified)	6	x
Cc1csc(NC(=O)CN2C(=O)COc3ccc(Cl)cc32)n1	0	0.4
Nc1sc2c(c1C(=O)Nc1ccc(Cl)cc1)CCC2	-7	6.1
CCOC(=O)c1c(NC(=O)c2ccc(Cl)c([N+](=O)[O-])c2)sc(C(=O)Nc2ccccc2C(F)(F)F)c1C	x	-1.7
CSc1c(C#N)c(-c2ccc(Cl)cc2)nn1C	x	-0.1
Nc1ccc(-n2nncc2C23CC4CC(CC(C4)C2)C3)cc1	9	x
O=C(NCc1cc(F)cc2c1OCOC2)c1cnc2ccccc2n1	x	2.3
CCOC(=O)CCN1C(=O)CN(C)CC1=O	4	x
O=S(=O)(NCc1ccc2c(c1)CCO2)c1ccccc1	x	-4.5
O=C(NCc1ccccc1)c1cc2ccccn2n1	9	x
c1csc(C2Nc3ccccc3-n3cccc32)c1 (stereo unspecified)	x	1.9
CC(C)CCn1c(=O)c2cccnc2n(CC(N)=O)c1=O	-30	x
Cc1ccc(C(=O)N2N=C(c3ccccc3)CC2c2ccc3c(c2)OCO3)cc1 (stereo unspecified)	x	-1.3
Cc1ccc(NC(=O)c2oc3ccccc3c2NC(=O)C2CC2)cc1C	0	x
O=C(O)/C=C/C(=O)NC1CCCC(C(F)(F)F)C1 (stereo unspecified)	-4	x
FC(F)(F)c1ccc(N2CCC(n3cccc3)CC2)nc1	x	-2.4
O=C(CC1=NS(=O)(=O)c2ccccc2N1)Nc1ccccc1	15	x
Nc1ccc(N2CCCCC2)c(C(F)(F)F)c1	11	-2.4
Cc1ccc2c(c1)c1c3n2CCN(CCC(=O)O)C3CCC1 (stereo unspecified)	31	x
COc1nc(N)c(C#N)c(-c2ccc(C)cc2)c1C#N	-2	0.0
CCc1ccc(NC(=O)/C=N/O)cc1	15	0.2

Profiles, looked up by structure. Order of screens: S aureus helic | MgrA DNA FP
`CCc1ccc(NC(=O)/C=N/O)cc1` is listed as 15 | 0.2
`Cc1ccc(NC(=O)c2oc3ccccc3c2NC(=O)C2CC2)cc1C` is listed as 0 | x

Continuation:
SMILES	S aureus helic	MgrA DNA FP
COC(=O)c1cc(S(=O)(=O)NCCCN2CCN(c3ccccc3)CC2)c[nH]1	14	x
COc1ccc2cc3c(N)nn(C(=O)c4cccnc4)c3nc2c1	-7	x
COC(=O)c1ccc(COc2cccc(Cl)c2)o1	7	-1.1
O=C(CSc1nnc(-c2ccco2)n1C1CCCCC1)N1CCNC1=O	-24	x
CCOc1ccccc1NC(=O)CSc1nncn1C(C)C	-18	x
O=C1CCN(c2ccc(Cl)cc2)N1	x	2.4
O=C1NC(=Nc2cccnc2)S/C1=C/c1ccc2c(c1)OCO2	-22	x
O=c1ccc(C(F)(F)F)c[nH]1	x	-2.6
N#Cc1ccccc1NC(=O)COC(=O)C1(c2cccc(F)c2)CCCC1	1	-0.2
COCCn1c(SCc2ccccc2)nnc1-c1c[nH]c2ccccc12	28	x
O=C(NCC1(c2ccccc2)CCCC1)c1cc2c(=O)[nH]c3ccccc3c2s1	10	0.2
Cc1cccc(NC(=O)CSc2nccn2-c2ccccc2)c1	16	x
CC(=O)c1ccc2c(c1)N(CCCN1CCC(CCO)CC1)c1ccccc1S2	x	4.0
CCNc1nc2cc(Cl)ccc2s1	x	-4.8
Cc1csc(-c2cc3c(ccc4ccccc43)oc2=O)n1	-10	0.1
C=C1SC(Nc2ccc(S(=O)(=O)N3CCCCC3)cc2)=NC12CCCCC2	x	0.2
COc1ccc(Nc2nc3nonc3nc2N2CCCCCC2)cc1	10	0.0
CN(C(=O)COC(=O)c1cccc(N2C(=O)c3ccccc3C2=O)c1)C1CCS(=O)(=O)C1 (stereo unspecified)	2	x
Cc1ccc(N2CCN(c3ccc(C)cc3)C2c2cccs2)cc1	-1	1.2
N/C(=N/O)c1cnc2n(c1=O)CCS2	x	-2.5
COc1cc(OC)c(NS(=O)(=O)c2ccc(C)c(C(=O)Nc3nn[nH]n3)c2)cc1Cl	0	x
C=CCN(CC=C)C(=O)C(C)Oc1ccc(Cl)cc1Cl (stereo unspecified)	-1	-2.0
COc1cnc(SC)n(C)c1=O	-5	-1.4
CCCn1c(=O)c2ccccc2n2c(SCC(=O)Nc3c(C)cc(C)cc3Cl)nnc12	-3	x
NS(=O)(=O)c1cc2c(cc1Cl)NC(CC1CCCC1)NS2(=O)=O (stereo unspecified)	x	-0.7
CCN(CC)c1nc2ccccc2nc1C(C#N)C(=O)NCCc1ccccc1 (stereo unspecified)	-97	x
CCOC(=O)c1c(C)oc2nc(C)nc(NCc3ccc(CN4CCCCC4CC)o3)c12 (stereo unspecified)	-4	x
Cc1cc(C)cc(NC(=O)NN2C(C)CCCC2C)c1 (stereo unspecified)	5	x
c1ccc2c(c1)NC(c1ccc3nsnc3c1)c1cccn1-2 (stereo unspecified)	10	x
O=S(=O)(NCC1CCCO1)c1cccc(C(F)(F)F)c1 (stereo unspecified)	-6	x
O=S(=O)(c1ccc2c(c1)OCCCO2)N1CCN(Cc2ncc(-c3ccccc3)o2)CC1	3	x
O=C(N/N=C/c1ccc2c(c1)OCO2)c1ccccc1	4	-3.2
O=S(=O)(NCCN1CCCC1)c1cccc2nsnc12	x	-1.4
COc1ccc(-n2c(SC(C)C#N)nc3ccccc32)cc1 (stereo unspecified)	18	x
CCC(=O)N1CCc2cc(Br)cc(S(=O)(=O)N3CCC(C(=O)NCc4ccc(C)o4)CC3)c21	-34	x
O=C(CSc1nc2cc(Cl)ccc2o1)NCC(F)(F)F	-3	x
O=S1(=O)N=C2CCCCCN2C(CSc2nnc(CN3CCCCC3)n2Cc2ccccc2)N1 (stereo unspecified)	-12	x
Cc1ccc(CCP(=O)(O)CCC(=O)O)cn1	9	0.9
CSc1nc2ccccc2n1CCO	11	0.8
CCC(=O)Nc1ccsc1C(=O)OC	x	-2.0

Shown with values under each structure: entries from further up
Values run as follows: S aureus helic	MgrA DNA FP
- O=S(=O)(NCCN1CCCC1)c1cccc2nsnc12
    x	-1.4
- COc1ccc(-n2c(SC(C)C#N)nc3ccccc32)cc1 (stereo unspecified)
    18	x
- CCC(=O)N1CCc2cc(Br)cc(S(=O)(=O)N3CCC(C(=O)NCc4ccc(C)o4)CC3)c21
    -34	x
- O=C(CSc1nc2cc(Cl)ccc2o1)NCC(F)(F)F
    -3	x

Part of the list above in order of molecular weight, smallest number first.
SMILES	S aureus helic	MgrA DNA FP
O=C(N/N=C/c1ccc2c(c1)OCO2)c1ccccc1	4	-3.2
C=CCN(CC=C)C(=O)C(C)Oc1ccc(Cl)cc1Cl (stereo unspecified)	-1	-2.0
Cc1ccc(N2CCN(c3ccc(C)cc3)C2c2cccs2)cc1	-1	1.2
COCCn1c(SCc2ccccc2)nnc1-c1c[nH]c2ccccc12	28	x

Additional compounds
SMILES	S aureus helic	MgrA DNA FP
OCCN1CCSC1=Nc1cccc2ccccc12	18	x
CC1Cc2ccccc2N1C(=O)/C=C/c1cn[nH]c1-c1cc2ccccc2o1 (stereo unspecified)	-8	x
CCCCN(C(=O)CN1CCc2ccccc21)c1c(N)n(Cc2ccccc2)c(=O)[nH]c1=O	-35	x
COc1cc(C(F)(F)F)nc2ccc(C)c(NC(=O)Nc3ccc(OC(F)(F)F)cc3)c12	x	0.4
N=C(N)SCc1ccc(C(F)(F)F)cc1	x	-0.6
O=C(O)c1ccc2c(=O)nc3n(c2c1)Cc1ccccc1-3	-10	-1.6
COc1ccccc1CNC(=O)C(C)Oc1ccccc1 (stereo unspecified)	2	-2.7
COC(=O)CCC(=O)c1oc2ccccc2c1NC(=O)CCCN1C(=O)c2ccccc2C1=O	7	x
CC1CCCC(C)N1C(=O)/C(C#N)=C/c1ccc2c(c1)OCO2 (stereo unspecified)	25	x
CNC(=O)c1c(-c2ccccc2)oc2ccc(OC)cc12	0	-1.0
N#CC(=C1SCCS1)c1ccc(Cl)cc1	x	-0.2
Cc1[nH]c2ccccc2c1C(=O)COC(=O)C1CCC(=O)N1 (stereo unspecified)	-4	0.5
CCOC(=O)C1=C(C)N=c2s/c(=C3\C(=O)N(C)c4ccccc43)c(=O)n2C1c1ccccc1 (stereo unspecified)	x	0.2
NC(=O)NC(=O)CC1Sc2ccccc2NC1=O (stereo unspecified)	7	x
CCOC(=O)c1sc(NC(=O)C=C(C)C)c(C#N)c1C	8	18
CC(C)c1ccc(S(=O)(=O)N2CCN(C(=O)c3cc(-c4ccccc4)n[nH]3)CC2)cc1	-9	x
Cc1cc(CNC(=O)Nc2c(C)noc2C)c(C(F)(F)F)o1	x	-1.4
Brc1ccc(OCc2cn3cccnc3n2)c(Br)c1	10	x
COc1cccc(OC)c1C(=O)Nc1ccc2c(c1)CCCN2C(=O)C1CC1	-1	x
OCc1cc(-c2ccc(Cl)c(Cl)c2)no1	x	0.5

In the list so far, these have bromine.
SMILES	S aureus helic	MgrA DNA FP
CCOc1ccc2cc(C3CC(c4ccc(Br)cc4)=NN3C(=O)CCC(=O)O)c(Cl)nc2c1 (stereo unspecified)	x	-0.9
CCC(=O)N1CCc2cc(Br)cc(S(=O)(=O)N3CCC(C(=O)NCc4ccc(C)o4)CC3)c21	-34	x
Brc1ccc(OCc2cn3cccnc3n2)c(Br)c1	10	x

(more compounds)
SMILES	S aureus helic	MgrA DNA FP
Cc1ccc(NC(=O)Nc2ccc3c(c2)C(=O)OC3)cc1Cl	x	0.2
c1csc(-c2cn3ccsc3n2)c1	15	x
O=C(CN1CCCC1c1cccs1)NC(=O)Nc1ccccc1 (stereo unspecified)	25	x
Cc1ccc(Nc2nn(CN3CCOCC3)c(=S)s2)cc1	8	x
COc1ccc(C(C(=O)NC2CCCC2)N(C(=O)c2ccco2)c2ccc(NC(C)=O)cc2)cc1OC (stereo unspecified)	-1	-1.3
COc1nc(C)cc(C)c1C#N	x	0.8
Clc1ccc(-c2noc3ncnc(NC4CCCC4)c23)cc1	-14	x
CCc1nc2scc(-c3ccc(Br)cc3)c2c(=O)o1	x	-2.0
COc1ccc(Cl)cc1NC(=O)NCCSCc1ccco1	x	0.2
COc1ccc(NC(C)=O)cc1NC(C)C(=O)NC(C)c1ccc(F)cc1 (stereo unspecified)	-12	x
O=c1oc(-c2ccco2)ns1	x	14
COc1cc(C(=O)O)cc(Br)c1OC	-5	x
CC1CCN(Cc2c(F)cccc2F)CC1	20	-1.6
COc1ccc(CC(=O)N(C)c2ccccc2)cc1	6	-0.9
COc1ccc2c(c1OC)C(=O)O[C@@H]2[C@H]1c2c(cc3c(c2OC)OCO3)CCN1C	x	7.4
Cc1cccc(SCC(=O)Nc2ccc3c(c2)OCCO3)c1	4	-0.6
CCC(=O)OCc1cc(F)cc2c1OC(c1ccccc1)OC2 (stereo unspecified)	1	x
CC(C)N1C(=O)N(c2ccccc2)C(=O)C1CC(=O)Nc1ccccc1 (stereo unspecified)	-9	x
CC1CCCCC1NC(=O)/C(C#N)=C/c1ccc2c(c1)OCCO2 (stereo unspecified)	-2	x
CCOC(=O)c1cc2ccccc2oc1=O	x	1.8
O=C(NC(=O)c1cccc(=O)o1)Oc1ccccc1	x	-0.9
O=C1CCCC(O)=C1N=Nc1ccc(Cl)c(Cl)c1	1	x
CCN1CCN(C(=O)CC2(C(F)(F)F)OCCO2)CC1	-23	-0.6
N/C(CS(=O)(=O)Cc1ccc(F)cc1)=N\O	x	-0.8
COc1ccc(N=C2SCC(=O)N2CCc2ccc(OC)c(OC)c2)cc1	x	-0.2

High-throughput results (PubChem BioAssay)
